VDR inh: vitamin D3 receptor (human) inhibition; P11473; VDR-SRC2-3 peptide fluorescence polarization, 2 h; Potency, µM, inactives show max response, negative = inhibition, hits mostly inhibitors; 0.93% of 400,000 active; AID 504847; active = well fitted inhibition curve with a large enough effect; inconclusive = small, poorly fitted or top-dose-only effect, or another doubt; inactive = no such curve, though single readings can be large or run the other way; note: series mostly up to about 120 µM
Target sequence (P11473 whole entry, looked up): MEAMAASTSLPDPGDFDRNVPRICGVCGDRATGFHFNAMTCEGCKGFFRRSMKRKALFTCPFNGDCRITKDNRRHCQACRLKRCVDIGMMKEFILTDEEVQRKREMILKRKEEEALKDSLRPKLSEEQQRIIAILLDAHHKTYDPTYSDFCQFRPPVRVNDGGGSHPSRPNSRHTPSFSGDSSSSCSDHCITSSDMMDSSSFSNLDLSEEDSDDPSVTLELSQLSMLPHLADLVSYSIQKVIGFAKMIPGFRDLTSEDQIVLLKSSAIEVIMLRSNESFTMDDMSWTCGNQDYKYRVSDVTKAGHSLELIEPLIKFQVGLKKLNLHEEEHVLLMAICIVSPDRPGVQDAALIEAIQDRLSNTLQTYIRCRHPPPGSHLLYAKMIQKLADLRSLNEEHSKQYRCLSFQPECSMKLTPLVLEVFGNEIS
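Compounds are added to VDR with labelled SRC2-3 coactivator peptide and held 2 h at room temperature. Inhibition of the VDR–peptide interaction is then read as a change in fluorescence polarization.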
Active calls of the source: *; ? = inconclusive; & = joins results of further samples. % is set by controls: 0 for no effect and ±100 for the full control effect; potency is the fitted concentration of half-maximal effect. This is a subset (hit frequency here may not be typical).

SMILES	VDR inh
Cc1ccc(C(=O)O)cc1N1C(=O)CCCC1=O	-0.4%
COc1cc(S(=O)(=O)N2CCN=C2c2ccccc2)c(OC)cc1Cl	6.2%
CCCC(C)n1[nH]c(=O)cc1N (stereo not drawn)	5.7%
CCOc1ccccc1N1CCN(Cc2c(C)n(C)n(-c3ccccc3)c2=O)CC1	-12.5%
N#Cc1c2c(c(-c3ccccc3)[nH]c1=O)CCCC2	-5.2%
O=C(Cc1c(C(=O)O)[nH]c2ccccc12)Nc1cccc(C(F)(F)F)c1	-21.0%
COc1ccccc1CN1CC[C@@]2(CCCN(C(=O)c3ccco3)C2)C1	-10.5%
Cc1ccc(C)c(Cn2cc(S(=O)(=O)c3ccc(Cl)cc3)c(=O)c3cc(F)ccc32)c1	-8.5%
C/C(=N\NC(=O)CN1CCN(c2ccc(F)cc2)CC1)c1ccco1	-9.6%
O=C(/C=C/c1cccc([N+](=O)[O-])c1)c1ccco1	?
Cc1ccc(S(=O)(=O)NCc2ccccc2)cc1C(=O)N1CC(C)CC(C)C1 (stereo not drawn)	-10.5%
COc1ccc(CCNC(=O)c2nn(C)c3c2CS(=O)(=O)c2ccccc2-3)c(OC)c1	-1.2%
C=C1CCN(C(CC(C)C)C(=O)NCCCc2ccccc2)S(=O)(=O)c2ccccc21 (stereo not drawn)	-7.2%
FC(F)Oc1ccc(/C=N/NC(=S)Nc2cc(C(F)(F)F)ccc2Cl)cc1	-13.4%
O=C(O)CN(Cc1ccccc1)S(=O)(=O)c1ccc2c(c1)OCCO2	6.5%
O=C(CCC(=O)c1cccs1)NNC(=O)c1ccccc1O	2.0%
COc1ccc(N2CCCC2)c(NC(=O)COc2ccccc2)c1	-9.1%
CN(NC(=O)COc1ccccc1)C1=NS(=O)(=O)c2ccccc21	-13.0%
COc1ccc(C(CNS(=O)(=O)c2ccc(C)cc2)N2CCN(C)CC2)cc1 (stereo not drawn)	0.4%
CCn1c(COc2cccc3cccnc23)nnc1SCC(=O)OC	-8.1%
COc1cccc2c1C(=O)c1c(O)c3c(c(O)c1C2=O)C[C@@](O)(C(=O)CO)C[C@@H]3O[C@H]1C[C@H](N)[C@H](O)[C@H](C)O1	-3.9%
O=C(O)/C=C/c1cn(Cc2ccccc2)nc1-c1ccc(Cl)cc1	1.8%
O=C(CSc1nnc(-c2ccncc2)o1)NCc1ccccc1	9.3%
Cc1cccc(-n2nc(C(=O)Nc3ccccc3)n3c(=O)cc(-c4ccccc4)nc23)c1	15.4%
O=C(NC1CC2CCCC(C1)N2S(=O)(=O)c1ccccc1)c1ccccc1 (stereo not drawn)	-5.2%
OCC[C@@H]1C[C@H](O)[C@@H](O)[C@]2(CCc3ccccc3O2)O1	20.7%
COc1cc(C(=O)N2CCc3ccccc32)cc(OC)c1OC	-14.4%
CCn1c(SCC(=O)c2ccc(Cl)s2)nnc1-c1cccs1	-16.9%
O=C(Nc1cccn(Cc2c(Cl)cccc2Cl)c1=O)c1c(Cl)cccc1Cl	-6.9%
CCCCCCCC(=O)Nc1cc(C(=O)NCc2ccc(C)cc2)ccc1N1CCC2(CC1)CC(c1cccc(Br)c1)=NO2	-19.1%
COc1ccc(CN(C(=O)c2ccccc2OC)C2CCS(=O)(=O)C2)cc1 (stereo not drawn)	7.0%
O=C(NCc1nc2ccccc2[nH]1)C1=C[C@@H](c2ccc(C(F)(F)F)cc2)C[C@@H](OCc2ccc(CO)cc2)O1	-18.2%
COc1ccc(Nc2nc(-c3cccc([N+](=O)[O-])c3)nc3ccccc23)c(OC)c1	-15.4%
COc1cc(OC)cc(C(=O)N/N=C/c2ccc(OC)c(COc3ccc4ccccc4c3)c2)c1	4.8%
O=C1NC(=O)C2(COC3(CCCC3)OC2)S1	12.4%
O=C(CSc1n[nH]c(=O)[nH]c1=O)N/N=C/c1ccccc1	10.9%
CCCC(=O)Nc1ccc(N2CCCCC2)cc1	-18.0%
Cn1c(=O)c2c(ncn2CC(=O)N/N=C/C=C\c2ccccc2[N+](=O)[O-])n(C)c1=O	-4.7%
Cc1ccc(C(C)NC(=O)c2ccncc2)c(C)c1 (stereo not drawn)	0.0%
O=c1oc2ccccc2cc1C1=Nn2c(nnc2-c2cccnc2)SC1	-3.2%
CC1(c2nnc(-c3cccc(Cl)c3)o2)CC(c2ccccc2)=NO1 (stereo not drawn)	-1.7%
CC(NC(=O)CN1C(=O)NC2(CCc3ccccc32)C1=O)c1ccccc1 (stereo not drawn)	15.2%
Cc1c(Cc2ccccc2)sc(NC(=O)C(C)(C)C)c1C(N)=O	-8.0%
COc1ccccc1CNS(=O)(=O)c1ccc2[nH]c3c(c2c1)CCCCC3	2.8%
COc1ccc(S(=O)(=O)N2CCOC2CNC(=O)C(=O)NCCc2ccc(OC)c(OC)c2)cc1 (stereo not drawn)	-14.7%
O=C(NCCO)/C(=C\c1ccco1)NC(=O)c1cccs1	2.4%
COc1ccc(NC(=O)c2oc3ccccc3c2NC(=O)c2ccco2)cc1	6.9%
Cc1cc(NC(=O)COC(=O)C2CC(=O)N(c3ccc(C)c(Cl)c3)C2)no1 (stereo not drawn)	7.4%
O=C(NCCNc1ccc([N+](=O)[O-])cc1C(F)(F)F)c1cccc(F)c1	-6.5%
CC(C)NS(=O)(=O)c1ccc(CCC(=O)NCc2ccc3c(c2)OCO3)cc1	-9.2%
The results go on.
SMILES	VDR inh
Cc1c(C(=O)N2CC[C@@H](N3CCC(O)CC3)[C@H](O)C2)[nH]c2ccc(Cl)cc12	8.0%
O=C(CN1CCN(S(=O)(=O)c2ccccc2)CC1)Nc1ccccc1C(=O)NC1CC1	-1.9%
Cc1ccc(S(=O)(=O)NCc2ccc3c(c2)cc(C)n3C)cc1	-7.2%
CCCCCC1C(C(=O)OCC)C(=O)NC1(C(=O)OCC)C(=O)OCC (stereo not drawn)	-11.9%
Cc1nnc(SCC(=O)N2CC(=O)Nc3ccccc32)n1Cc1ccccc1	0.5%
CC(=O)c1ccc(NC(=O)CSc2ccc(-c3cccs3)nn2)cc1	10.2%
CCOc1cc(C(=O)Nc2cnccn2)cc(OCC)c1OCC	23.2%
CCN(CC)S(=O)(=O)c1ccc(N2CCOCC2)c(NC(=O)c2cc(Cl)c3c(c2)OCO3)c1	2.0%
CCOc1ccc(OC(=O)c2cn(-c3cccc(OC)c3)c(=O)c3ccccc23)cc1	1.1%
Cc1noc(C)c1S(=O)(=O)Nc1ccc2c(c1)C(=O)N([C@H](C)CO)C[C@H](C)[C@@H](CN(C)C(=O)Nc1ccc3c(c1)OCO3)O2	-2.6%
Cc1nnc(N2CCC(C(=O)NC(C)C)CC2)c2nn(-c3ccccc3)c(C)c12	8.9%
COC(=O)C1CCN(C(=O)CN2C(=O)NC(CCc3ccccc3)C2=O)CC1 (stereo not drawn)	-6.2%
COc1ccc(C[C@@H]2CN3C(=NC[C@@H]3C)N2C[C@H](C)NC(=O)c2ccc(C)c(Br)c2)cc1	-5.8%
O=C(N/N=C/c1cccc(O)c1)c1ccc(COc2ccc3c(c2)CCC3)o1	-2.0%
CSc1ncccc1C(=O)Nc1ncc(C)s1	7.2%
O=S(=O)(c1ccc(Cl)c(NC(=S)Nc2ccccc2N2CCOCC2)c1)N1CCOCC1	-1.3%
N#Cc1cc2c(=O)n3ccccc3nc2n(CCCN2CCOCC2)c1=O	-7.5%
Cc1ccc(S(=O)(=O)N/N=C\c2cn(CC(N)=O)c3ccccc23)cc1	0.2%
COc1ccccc1OCC(=O)Nn1c(=S)[nH]c2ncccc2c1=O	-6.7%
CCOc1ccc(CN(C)C(=O)c2cc(S(=O)(=O)N3CCCC3)ccc2C)cc1	-9.5%

Filtered by structure, the compounds so far with a Cl atom.
SMILES	VDR inh
COc1cc(S(=O)(=O)N2CCN=C2c2ccccc2)c(OC)cc1Cl	6.2%
Cc1ccc(C)c(Cn2cc(S(=O)(=O)c3ccc(Cl)cc3)c(=O)c3cc(F)ccc32)c1	-8.5%
FC(F)Oc1ccc(/C=N/NC(=S)Nc2cc(C(F)(F)F)ccc2Cl)cc1	-13.4%
O=C(O)/C=C/c1cn(Cc2ccccc2)nc1-c1ccc(Cl)cc1	1.8%
CCn1c(SCC(=O)c2ccc(Cl)s2)nnc1-c1cccs1	-16.9%
O=C(Nc1cccn(Cc2c(Cl)cccc2Cl)c1=O)c1c(Cl)cccc1Cl	-6.9%
CC1(c2nnc(-c3cccc(Cl)c3)o2)CC(c2ccccc2)=NO1 (stereo not drawn)	-1.7%
Cc1cc(NC(=O)COC(=O)C2CC(=O)N(c3ccc(C)c(Cl)c3)C2)no1 (stereo not drawn)	7.4%
Cc1c(C(=O)N2CC[C@@H](N3CCC(O)CC3)[C@H](O)C2)[nH]c2ccc(Cl)cc12	8.0%
CCN(CC)S(=O)(=O)c1ccc(N2CCOCC2)c(NC(=O)c2cc(Cl)c3c(c2)OCO3)c1	2.0%
O=S(=O)(c1ccc(Cl)c(NC(=S)Nc2ccccc2N2CCOCC2)c1)N1CCOCC1	-1.3%

Continued:
SMILES	VDR inh
CCn1c(COc2cccc(C)c2)nnc1SCC(=O)NC1CCCC1	?
COc1ccc(CN2CCN(c3ccccc3OC)CC2)cc1OC	-16.1%
c1ccc(-c2ccc(N3CC4(CCNCC4)C3)cc2)cc1	-4.4%
O=C(COC(=O)C12CC3CC(CC(O)(C3)C1)C2)N1CCN(S(=O)(=O)c2ccc(Cl)cc2)CC1	16.8%
Cc1cc(C)n(-c2ccc(C(=O)NCC(c3ccco3)N3CCCC3)cc2)n1 (stereo not drawn)	-8.3%
Cc1cc(C(=O)NNC(=O)c2ccc(C)c([N+](=O)[O-])c2)c(C)o1	-1.1%
CC(=O)c1cn(C2OC(CO)C3OC(C)(C)OC32)c(=O)n(C)c1=O (stereo not drawn)	3.5%
Cc1ccc(NC(=O)NC(=O)N(c2ccccc2)S(C)(=O)=O)cc1	7.8%
C/C(=N/NS(=O)(=O)c1ccc(C)cc1)c1cccc(NC(=O)c2cccc(Cl)c2)c1	-2.6%
CCOC(=O)c1c(C)n(C)c2ccc(OCC(O)Cn3nc(C)cc3C)cc12 (stereo not drawn)	-4.1%
CCOC(=O)C1(CCc2ccccc2)CCN(Cc2cc(OC)c(OC)cc2OC)CC1	-20.3%
O=C(NCCCN1CCC(Cc2ccccc2)CC1)C1CC(=O)N(C2CCCC2)C1 (stereo not drawn)	-18.6%
CCc1cc2c3c(c1)C(C)CC(C)(C)N3C(=O)C2=O (stereo not drawn)	-6.6%
COc1ccc(/C=C2\SC(=O)N(CCC(=O)N3CCCCC3CCO)C2=O)cc1 (stereo not drawn)	-6.5%
CSc1nc(Cl)c(Cc2ccc(OC(C)C)cc2)c(N2CCOCC2)n1	-17.7%
CCn1c(SCc2nc3ccccc3nc2C)nnc1-c1cccs1	-8.0%
COC(CSc1nc(N)c2c3c(sc2n1)CN(C)CC3)OC	-20.5%
CCN1CCN(c2nc(-c3cccs3)nc3ccccc23)CC1	-24.3%
CCCc1[nH]nc2c1C(c1ccc(OC(=O)N3CCOCC3)c(OC)c1)C(C#N)=C(N)O2 (stereo not drawn)	3.5%
Cc1ccc(-c2nn(-c3ccc(F)cc3)cc2C(=O)N(C)CC(=O)Nc2ccc(N3CCOCC3)cc2)cc1	-21.9%
Cc1ccc(C(=O)/C=C/c2ccco2)c(O)c1	-24.4%
CNC(=S)Nc1ccc(C23CC4CC(CC(C4)C2)C3)cc1	-2.0%
Cc1ccc2c(CN3CCCCC3C)cc(=O)oc2c1C (stereo not drawn)	-6.1%
COc1ccc(Nc2ncnc3sc4c(c23)CCCC4)cc1	-3.2%
O=C(NCC(=O)N(c1cccnc1)C(C(=O)NC1CCCC1)c1ccccc1F)c1ccco1 (stereo not drawn)	-23.5%
Cn1c(C2=C(O)CN(Cc3ccccc3)C2=N)nc2ccccc21	-1.1%
Cc1ccc(NC(=O)c2oc3ccc(S(=O)(=O)N4CCCCCC4)cc3c2C)cc1Cl	18.9%
O=C(CSc1nnc(CN2CCCC2)n1-c1ccc(F)cc1)c1ccc2c(c1)OCO2	-12.3%
Cc1ccc(OCC(=O)NC(=S)Nc2ccc(Br)c(C)n2)cc1	8.4%
CC(C)CN(CC(C)C)CC(O)COc1ccccc1Br (stereo not drawn)	11.0%
CCOCCCNC(=O)c1c(NC(=O)c2cc(=O)c3cc(C)c(C)cc3o2)sc2c1CCC2	4.1%
CCc1ccccc1NC(=O)C1(S(=O)(=O)c2ccc(Cl)cc2)CC1	12.6%
CC(C)(C)SCCNS(=O)(=O)c1ccccc1	6.9%
COc1cc(OC)c(OC)cc1CNC(=O)c1cc(S(=O)(=O)N(C)c2ccccc2OC)ccc1C	0.4%
COc1cccc(NC(=O)CN(C)C(=O)C(Sc2ccccc2)c2ccccc2)c1 (stereo not drawn)	4.4%
O=C(O)Cn1cc(C(=O)C(F)(F)F)c2ccccc21	18.8%
CCCc1cc(=S)n2c([nH]c3ccccc32)c1C#N	?
O=C(Nc1c(C(=O)c2ccccc2)oc2ccccc12)c1ccc(F)cc1	-0.6%
CC1Cc2ccccc2N1C(=O)CSc1nccc(=O)[nH]1 (stereo not drawn)	-12.0%
O=C(c1cnn(-c2ccc(F)cc2)c1-n1cccc1)N1CCN(c2ccc(F)cc2)CC1	-3.3%
COc1ccc(C2=C(Nc3ccc(C)cc3C)c3ccccc3C2=O)cc1	3.3%
CC(=O)N1CC[n+]2c(-c3ccc([N+](=O)[O-])cc3)csc21	?
COc1cc(OC)cc(C(=O)Nc2ccc(S(=O)(=O)Nc3nc(C)cc(C)n3)cc2)c1	-2.1%
O=C(NCCN1CCN(c2cccc(Cl)c2)CC1)Nc1ccccc1	17.6%&-20.1%
Cc1ccc(-c2csc(N3CCN(c4cc5c(cc4Cl)nc(-c4ccncc4)n5CCN4CCCCC4)CC3)n2)cc1	-25.3%
Cc1cc(NC(=O)c2sccc2C)n(-c2nc3ccccc3[nH]2)n1	9.4%
COc1ccc2nc(NCc3ccccc3)[nH]c2c1	-16.7%
COc1ccc(CC(NC(C)=O)C(=O)NC2CCN(C(=O)NCc3ccccc3)CC2)cc1 (stereo not drawn)	9.3%
Cc1cc(C)c(C(=O)NC2CC(C)(C)Cc3c2cnn3-c2ccccc2)o1 (stereo not drawn)	14.1%
CCOc1ccc2ccccc2c1CNCCc1ccc(S(N)(=O)=O)cc1	-27.7%

Screening data as filed in PubChem.
